Bioassay records: PubChem, several laboratories
BJeLR lethal: kills HRASV12-expressing BJeLR cells; BJeLR (HRASV12) viability, CellTiter-Glo ATP luminescence, 48 h; reference of the scale not given here; inhibition, % (concentration not given with the values); actives 0.17% (n = 300,000); AID 1554;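 active = replicate mean above 50%; inconclusive = above 50% but judged a plate artefact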;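 note: 50 nL library stock added to about 25 µL; numbers are from one replicate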
Mtb hypoxia rep: Mtb hypoxia fluorescent reporter inhibition | M. tuberculosis hypoxia-regulated fluorescent reporter, fluorescence | fluorescence inhibition, % (concentration not given with the values) | actives 0.1% (n = 300,000) | AID 1159583;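 active = 35 to 45% if threefold the growth effect, above 45% if 1.5-fold the growth effect; inactive = the rest, general growth blockers included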;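 note: wells of about 50 µL received 100 nL stock; 0% = vehicle wells and 100% = reference inhibitor wells; whole bacteria with a GFP reporter of the hypoxia response; strong numbers were not always called active; many hits fall short of the cut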
PrP UTR inh: inhibition of PrP 5' UTR reporter expression; cell-based PrP 5' UTR mRNA reporter, plate reader; AID 488862; actives 0.35% (n = 340,000); inhibition, % (no concentration beside the values);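 active = every replicate at 50% or more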;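 note: 0 = median of the neutral control wells; tested in H4 reporter cells; numbers are from one replicate; inactives centre near -14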
ugtP null kill: kills S. aureus RN4220 lacking UgtP. actives 0.54% (n = 330,000). S. aureus RN4220 ugtP deletion, OD600 growth, 16 h; some inactives read as strong as hits. AID 1259309. growth inhibition, % (concentration not given with the values);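 active = z-score under -3 and OD600 up to 0.15 on both plates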;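 note: plate controls were untreated wells for no effect and antibiotic for full effect; wells of about 80 µL received 100 nL stock; the first replicate is given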
Bead autofluor: counter-screen for toxin protease inhibitors: compound fluorescence; AID 624483; compound autofluorescence counterscreen, microsphere flow cytometry; stronger effect = higher value; fluorescence intensity (test concentration not listed); actives 3.1% (n = 360,000);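 active = at least 3 SD above the mean of all compounds, about 16000 in these data; inconclusive = too few beads counted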;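 note: 100 nL of 1 mM stock went into each well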
Sa RN4220 lethal: kills Staphylococcus aureus RN4220 | S. aureus RN4220 growth, OD600, 16 h | inhibition, % (test concentration not listed) | actives 0.33% (n = 330,000) | AID 1259311;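 active = z-score of -3 or lower and OD600 up to 0.18 on both plates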;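 note: plate controls were untreated cells for no effect and reference antibiotic for full effect; stock transfer was 100 nL into about 80 µL; one replicate is shown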
Mtb hypoxia rep growth: recorded beside Mtb hypoxia rep, whose call it bears; growth inhibition, %; measured here: M. tuberculosis growth (absorbance);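 0% = vehicle and 100% = reference antibiotic; read after six days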
An asterisk follows results filed as active; ? = inconclusive; . = not tested or not shown; & = joins results of further samples. This is a random part of the collection; about 4% have a hit in one of these screens.

Order of results – BJeLR lethal	Mtb hypoxia rep	Mtb hypoxia rep growth	PrP UTR inh	ugtP null kill	Bead autofluor	Sa RN4220 lethal
1	O=C(CN1CCOCC1)Nc1ccc(Cl)c(Cl)c1
    -3	.	.	-19	.	4561	.
2	COC(=O)c1ccc2c(=O)[nH]c(CCl)nc2c1
    .	5	1	-21	13	4715	6.5
3	COCCn1c(C)cc(/C=C(\C#N)C(=O)OCC(=O)N(C)c2c(N)n(Cc3ccccc3)c(=O)[nH]c2=O)c1C
    3	-2	-8	-37	3	5143	2.0
4	CCCCc1cc(=O)oc2cc(OCC(=O)NCCN3CCOCC3)ccc12
    -2	7	6	-4	12	5523	0.4
5	CO/N=C(/CNC(=O)c1ccccc1Cl)c1ccc(Cl)cc1
    0	.	.	-10	.	?	.
6	CCOC(=O)/C(=N/Nc1ccc(OC)cc1)Sc1nnc(CCc2ccccc2)n1-c1ccccc1
    -4	.	.	-18	.	2111	.
7	CNS(=O)(=O)c1ccc(NC(=O)C2CC(=O)N(c3ccc(Cl)cc3)C2)cc1 (configuration not stated)
    -3	5	3	-17	6	3891	3.3
8	CSCCC(NC(N)=O)C(=O)NCc1ccccc1Cl (configuration not stated)
    -8	.	.	-10	-6	4455	-1.1
9	CC(Nc1cc(N2CCN(S(=O)(=O)N(C)C)CC2)ccc1[N+](=O)[O-])c1ccccc1 (configuration not stated)
    -9	4	5	-30	13	4886	1.2
10	CCOC(=O)C1(C)NC(c2ccco2)C2C(=O)N(c3ccc(C)cc3)C(=O)C21 (configuration not stated)
    -7	.	.	6	1	3824	0.6

Exported as labelled records: 3 of the compounds above
10: CCOC(=O)C1(C)NC(c2ccco2)C2C(=O)N(c3ccc(C)cc3)C(=O)C21 (configuration not stated)
  BJeLR lethal: -7
  Mtb hypoxia rep: .
  Mtb hypoxia rep growth: .
  PrP UTR inh: 6
  ugtP null kill: 1
  Bead autofluor: 3824
  Sa RN4220 lethal: 0.6

4: CCCCc1cc(=O)oc2cc(OCC(=O)NCCN3CCOCC3)ccc12
  BJeLR lethal: -2
  Mtb hypoxia rep: 7
  Mtb hypoxia rep growth: 6
  PrP UTR inh: -4
  ugtP null kill: 12
  Bead autofluor: 5523
  Sa RN4220 lethal: 0.4

3: COCCn1c(C)cc(/C=C(\C#N)C(=O)OCC(=O)N(C)c2c(N)n(Cc3ccccc3)c(=O)[nH]c2=O)c1C
  BJeLR lethal: 3
  Mtb hypoxia rep: -2
  Mtb hypoxia rep growth: -8
  PrP UTR inh: -37
  ugtP null kill: 3
  Bead autofluor: 5143
  Sa RN4220 lethal: 2.0

Remaining list, next part:
Order of results – BJeLR lethal	Mtb hypoxia rep	Mtb hypoxia rep growth	PrP UTR inh	ugtP null kill	Bead autofluor	Sa RN4220 lethal
11	CCCCC(CC)C(=O)Nc1cccc(SC)c1 (configuration not stated)
    6	10	7	2	-1	4672	3.1
12	CC(=O)N1CSCC1C(=O)N1CCN(c2ccc(N3CCOCC3)nn2)CC1 (configuration not stated)
    13	1	11	-8	11	6385	1.1
13	CC(C)CCNC(=O)NC(=O)COC(=O)/C=C/c1cc(Br)ccc1F
    2	-3	1	3	10	4560	4.8
14	Cc1cc(O)c(C(C)C)cc1NC(=O)c1cccc(Cl)c1
    5	15	6	-27	-11	8188	1.4
15	Cc1ccc(S(=O)(=O)N(C)C)cc1NC(=O)COC(=O)CN1C(=O)c2ccccc2C1=O
    .	6	-2	.	3	.	2.1
16	O=C(c1cc2n(n1)C(C(F)(F)F)CC(c1ccco1)N2)N1CCc2ccccc2C1 (configuration not stated)
    -10	-3	6	64*	-19	3328	-11
17	COc1ccc(NC(=O)Nc2ccc3c(c2)CC(=O)N(C(C)CO)CC(C)C(CN(C)C(=O)Nc2ccccc2)O3)cc1 (configuration not stated)
    .	6	9	.	-8	.	2.0
18	CC(=O)c1cccc(NC(=O)/C(=C\c2cccnc2)NC(=O)c2ccco2)c1
    -7	12	8	-9	3	2581	5.5
19	N/C(=N\OC(=O)c1ccco1)c1cccc(Br)c1
    3	16	-3	-99	9	15735	5.6
20	CCOc1cc(-c2nc(C)c(C(C)=O)n2O)ccc1OCC(=O)Nc1ccc(F)cc1
    4	3	5	16	-12	4203	4.6
21	CC1=CC(C)(C)[N+](C)(C)c2ccc(C)cc21
    4	8	0	-8	0	5139	9.6
22	O=C(c1ccccc1)c1ccc(Oc2ccc([N+](=O)[O-])cc2[N+](=O)[O-])cc1
    .	.	.	-14	11	4048	-3.3
23	Cc1ccc(-c2nnc(CCC(=O)NCc3csc(C)n3)o2)s1
    -2	-1	10	1	9	4433	3.7
24	COC(=O)Cc1cc(=O)n2[nH]c(C(F)(F)F)nc2n1
    -2	4	10	-7	-3	3081	7.2
25	O=c1c2ccccc2cnn1Cc1nnc(-c2cccs2)o1
    4	0	19	-23	0	3582	4.6
26	Cc1nn(C)c(C)c1NC(=O)COc1ccccc1C#N
    .	12	-2	-16	5	6518	1.7
27	C=CCN1C(=O)/C(=C\c2ccc(OC(=O)c3ccco3)c(OC)c2)SC1=S
    -5	10	5	-17	1	2486	10
28	CCN1CCCC1CNC(=O)Cn1cc2c(n1)CCC(C)C2 (configuration not stated)
    -9	.	.	-20	8	4933	1.1
29	O=C(NCCSc1c[nH]c2ccccc12)c1ccco1
    11	-4	8	-27	-9	5522	-12
30	O=C(O)c1ccc2nc(CO)[nH]c2c1
    -9	7	6	-22	6	3875	4.8
31	Cc1ccc(NC(=O)N2CCCc3ccccc32)cc1
    0	2	4	-29	7	4539	8.0
32	Cc1ccc(OCCCn2cc(C#N)c3ccccc32)cc1
    1	7	11	-26	-6	12478	8.6
33	Cc1ccc(N2CC(C(=O)NCCS(=O)(=O)N3CCN(c4ccc(F)cc4)CC3)CC2=O)cc1 (configuration not stated)
    -2	4	-1	-32	5	5416	2.6
34	COCCCNC(=O)c1ccc(S(=O)(=O)c2ccc(C)cc2)c(NC(C)=O)c1
    -3	0	-1	-34	2	3526	-3.3
35	O=C(Nc1cc(Cl)ccc1-n1cncn1)c1ccccc1OC(F)F
    .	-1	0	-12	-1	4600	1.7
36	O=C(CN(c1cccc([N+](=O)[O-])c1)S(=O)(=O)c1ccccc1)N(Cc1ccccc1)Cc1ccccc1
    2	18	7	-20	11	2103	8.5
37	C=CCNc1c2c(nc3nnnn13)CCCC2
    7	4	8	-21	11	4042	-1.0
38	Nc1ccnn1C1CCNCC1
    -3	-7	-1	-17	-3	19137*	-2.7
39	Cn1c(SCC(=O)Nc2ccc(F)cc2)nnc1C1CC1
    -13	12	7	-6	13	3761	3.3
40	Cc1ccc(C(=O)Nc2ccc(-c3csc(C)n3)cc2)cc1
    10	3	3	-67	13	3294	24

Next results
entry	Molecule	BJeLR lethal	Mtb hypoxia rep	Mtb hypoxia rep growth	PrP UTR inh	ugtP null kill	Bead autofluor	Sa RN4220 lethal
41	O=C1C(Cc2ccccc2)Nc2ncnc(N3CCN(c4ccccc4)CC3)c2N1Cc1ccc(Br)cc1 (configuration not stated)	.	-11	-7	13	-5	2840&6487	4.0
42	CCOc1ccc(NC(=O)CNC(=O)COc2ccccc2)cc1	4	-1	-4	-24	5	2440	0.4
43	Cn1c(=O)[nH]c2c(nc(-c3ccc(Cl)cc3)n2C)c1=O	-20	3	2	-11	3	3672	2.3
44	Cc1ccc(-c2cc(-c3ccccc3)no2)cc1	10	12	11	22	3	2759	4.8
45	CCOc1ncccc1C(=O)NCc1ccc(C)cc1	5	8	12	-5	-3	2485	3.0
46	Cc1ccc(C)c(N2CCN(C(=O)c3ccc(Cl)c(NC4=NC5CS(=O)(=O)CC5S4)c3)CC2)c1 (configuration not stated)	-1	-2	9	-21	4	5971	0.9
47	COCCn1nnnc1SCC(=O)c1ccc(F)cc1	-4	.	.	-17	3	4515	0.7
48	O=C(CSc1nc2ccccc2c(=O)n1-c1ccc(F)cc1)NCc1ccco1	0	-2	8	-20	-2	10257	3.5

Reprinted from the part before: two entries, then new ones.
entry	Molecule	BJeLR lethal	Mtb hypoxia rep	Mtb hypoxia rep growth	PrP UTR inh	ugtP null kill	Bead autofluor	Sa RN4220 lethal
47	COCCn1nnnc1SCC(=O)c1ccc(F)cc1	-4	.	.	-17	3	4515	0.7
48	O=C(CSc1nc2ccccc2c(=O)n1-c1ccc(F)cc1)NCc1ccco1	0	-2	8	-20	-2	10257	3.5
49	CCC(=O)Nc1c(C(=O)N2CCN(c3ccccn3)CC2)cnn1-c1ccc(C)cc1	-6	12	9	-26	12	2131	7.3
50	Cc1ccccc1Cn1nc(C)c(NC(=O)c2nc3n(n2)C(C(F)F)CC(C)N3)c1C (configuration not stated)	-6	9	8	-19	-2	2817	-14
51	CC(C)c1c(Cl)c(O)c(-c2ccccc2)c(=O)n1-c1ccc(F)cc1	10	3	1	-10	10	2374	-0.9
52	CC(CNS(=O)(=O)c1cc(Cl)ccc1Cl)CN(C)C (configuration not stated)	-2	-3	2	-8	6	9393	3.2
53	CC(N=C1CC(C)(C)CC(=O)/C1=C(\O)CCCN1C(=O)c2ccccc2C1=O)C(=O)O (configuration not stated)	.	-5	9	.	-1	.	1.3
54	O=C(CCCC(=O)N(c1ccc2c(c1)OCCO2)C(C(=O)NC1CCCCC1)c1ccc(F)cc1)Nc1ccccn1 (configuration not stated)	-7	-4	-2	-27	-9	6882	1.0
55	Cc1occc1-c1nnc(SCC(=O)N2CCc3ccccc32)o1	2	-3	3	-1	6	4366	3.3
56	COc1cccc2c(=O)cc(C)n(CC(=O)Nc3ccccc3C)c12	7	.	.	-18	1	2781	19
57	CCOC(=O)C(NCc1ccc(OC)cc1)(NC(C)=O)C(F)(F)F (configuration not stated)	14	1	5	-11	3	2394	3.8
58	O=C(NCCCN1CCN(Cc2ccccc2)CC1)C1CCN(S(=O)(=O)N2CCC3(CC2)OCCO3)CC1	6	-2	9	-15	3	21569*	-0.3
59	COc1ccc(S(=O)(=O)N2CCCC(C(=O)Nc3cccnc3)C2)cc1Cl (configuration not stated)	5	14	13	-19	10	3703	2.0
60	CCOC(=O)c1nsnc1NCCCl	-2	14	8	-13	4	4379	5.5
61	COc1cc(OC)c(OC)cc1C=O	.	.	.	-10	-1	5907	0.6
62	COc1ccc(C(=O)/C=C/N(C)C)cc1OC	3	.	.	-17	-9	2665	1.1
63	Cn1c(=O)c2c(nc3n2CCS3)n(C)c1=O	-4	18	5	-9	-1	4619	0.3
64	FC(F)(F)C1=Nc2cccc3cccc(c23)N1	.	1	-2	-11	-10	5368	22
65	CC1CCCN(C(=O)c2cc(S(=O)(=O)N3CCCCC3)c[nH]2)C1 (configuration not stated)	4	10	6	-6	5	5856	3.3
66	O=C(NC(C(=O)NN=Cc1ccncc1)c1n[nH]c(=O)c2ccccc12)c1ccccc1 (configuration not stated)	.	9	13	.	4	.	1.0
67	O=C(CCc1nnc2ccc(NCc3ccccc3Cl)nn12)N1CCC2(CC1)OCCO2	-2	2	6	-5	0	4384	-1.9
